# Compound activity deposited in PubChem by National Center for Advancing Translational Sciences (NCATS).
# Rango dissoc inh: inhibition of RanGTP-driven Rango-importin beta dissociation; O95149+P62826; Biochemical FRET Rango-importin beta, RanGTP-induced dissociation; Potency, µM (titrated, usually from 46.1 µM), for the others: top-dose activity change, negative = inhibition; 340,000 tested, 0.071% active; active means falling FRET ratio curve, often poorly fitted, with flat reads before Ran was added; inconclusive means other falling curves, or compound fluorescence or quenching; inactive means flat or rising ratio curve;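 further: potency means the concentration at half of the fitted maximal effect; % of control where 0% means no effect; nearly all actives have a fitted effect of over 45% in size; -100% = wells without RanGTP and RCC1; the record marks most hits as doubtful in a second field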
#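 Rango FRET biosensor (snurportin-1 IBB flanked by N-terminal EYFP and C-terminal CFP10) at 0.1 uM, with 0.25 uM importin beta in PBS, 1mM DTT, 0.02% Tween-20, 0.1% BSA. 0.6 uM Ran, 2mM GTP and 0.2 uM RCC1 were then added for 45 min at room temperature. Inhibition read as loss of FRET rise.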
# miR-21 reporter: miR-21 reporter, rising signal; HeLa miR-21 FLuc reporter, luciferase, 48 h; Potency, µM (doses to about 38.3 µM), inactives show at the highest dose reporter change, positive = more light; 340,000 tested, under 10 active; active = well fitted rising curve with a large enough effect; inconclusive = small, poorly fitted or top-dose-only effect; inactive = no such curve, though single readings can be large or run the other way;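 further: % of control where 0% means no effect; miR-21 action dims this reporter so a rising signal means less miR-21 action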
#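 HeLa miR-21-FLuc reporter line, endogenous miR-21; 2000 cells/well in DMEM/10% FBS; compound titration up to ~40uM final, 48 h, 37 degree Celsius; luciferase detection reagent, 15 min lysis, CCD luminescence.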
# GLA inh pH 4.5: blocks human alpha-galactosidase A at pH 4.5 | P06280 | purified enzyme, 4-MU-alpha-Gal fluorescence, pH 4.5 | activity change, negative = inhibition, % at 105 µM | 230,000 tested, under 10 active; inconclusive = small, poorly fitted or top-dose-only inhibition, or a rising curve; inactive = flat fitted curve, though single readings scatter; no compound was filed as active;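 further: 0% = full activity with enzyme and -100% = basal without enzyme; dose as in the result columns while the protocol names 77 µM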
# Target sequence (P06280 whole entry, looked up): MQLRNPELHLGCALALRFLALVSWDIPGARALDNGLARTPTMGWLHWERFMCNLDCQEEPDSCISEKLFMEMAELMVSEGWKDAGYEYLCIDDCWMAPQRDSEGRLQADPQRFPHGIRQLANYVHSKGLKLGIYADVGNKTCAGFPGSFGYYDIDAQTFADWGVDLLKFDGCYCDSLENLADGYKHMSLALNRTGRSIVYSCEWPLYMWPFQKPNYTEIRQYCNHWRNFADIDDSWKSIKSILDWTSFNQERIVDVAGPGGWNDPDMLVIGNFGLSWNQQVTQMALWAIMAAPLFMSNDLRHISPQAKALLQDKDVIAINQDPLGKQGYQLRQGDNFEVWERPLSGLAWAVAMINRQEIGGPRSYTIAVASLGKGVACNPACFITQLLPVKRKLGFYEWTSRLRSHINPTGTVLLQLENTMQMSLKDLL
# Rango complex inh: inhibitors of Rango-importin beta complex formation; Rango CFP/YFP FRET sensor + importin beta, 45 min; Potency, µM (top dose mostly 92.2 µM), without a hit: at the top dose inhibition of complex formation; 340,000 tested, 0.031% active; active = rising FRET ratio curve, often small or poorly fitted; inconclusive = mostly compound fluorescence or quenching in the first reads; inactive = flat curves in all reads;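 further: potency means the concentration at half of the fitted maximal effect; 0% = DMSO wells and 100% = buffer wells lacking importin beta; nearly all actives have a fitted effect of over 15% in size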
#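 Inhibition scored from the CFP 486 nm/YFP 530 nm FRET ratio 45 min after adding 0.125 microM importin beta to 50 nM Rango biosensor preincubated 5 min with compound (room temperature, PBS with DTT, Tween-20, BSA). No-importin wells as positive control.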
# * = called active by the depositor; ? = inconclusive; . = no result given; & = joins results of further samples; [ ] = dose if it differs, or a comment.
SMILES,Rango dissoc inh,miR-21 reporter,GLA inh pH 4.5,Rango complex inh
O=[N+]([O-])c1cccc(COc2ccc(CN3CCCCC3)cc2)c1,4%,.,.,-0.1%
CCOc1ccc(-c2nc(CSCC(=O)NCCCN3CCCC3=O)c(C)o2)cc1,13%,0%,.,-1.7%
Cc1ccccc1OCCCC(=O)Nc1ccc(N2CCOCC2)cc1,-1%,-8%,5,-0.7%
O=C(Cn1ncc(Cl)c(Cl)c1=O)N1CCOCC1,2%,?,5,1.0%
Cc1cc(NC(=O)CSc2nnc(-c3ccccc3)o2)no1,19%,-28%,0,-0.8%
COc1ccc(C(=O)NCCCn2ccnc2)cc1,-23%,-7%,-7,-5.4%
O=C1CCCc2nn(-c3ccccc3)c(-c3ccncc3)c21,-7%,3%,9,-0.7%
O=C(CN1CCOCC1)Nc1nc(-c2ccccc2Cl)cs1,-14%,-7%,.,-2.9%
CCCc1nnc(NC(=O)c2c(O)c3cccc4c3n(c2=O)CC4)s1,4%,-1%,-4,-1.3%
O=C(CSc1ccc2ccccc2n1)NCCCN1CCCC1=O,0%,.,.,-2.1%
O=C(NNC(=O)C1CCN(S(=O)(=O)c2ccc(Cl)cc2)CC1)c1ccccc1,0%,-12%,9,0.7%
O=C(NCCc1ccccc1)c1ccc(CS(=O)(=O)Cc2ccccc2F)o1,0%,-4%,-1,-0.7%
O=C(NC(NC(=S)Nc1ccccc1Cl)C(Cl)(Cl)Cl)c1cccc(Cl)c1 (stereo unspecified),8%,?,-1,1.2%
O=C(NCCc1ccccc1)C1CCN(C2CCN(C(=O)CC3=CCCCC3)CC2)CC1,-3%,4%,0,-0.3%
COC(=O)c1cc(NC2c3ccccc3C(=O)N2Cc2ccco2)cc(C(=O)OC)c1 (stereo unspecified),13%,-3%,5,-0.3%
COc1cc(NC(=O)c2cccc(Br)c2)nc(OC)n1,0%,-41%,4,-0.1%
Cc1nc(NC2CCCC2)sc1C(=O)N(C)C,?,-27%,4,?
COc1ccc(OC)c(NC(=O)c2cc3ccccc3cc2OC)c1,7%,-32%,.,-2.4%
CC(=O)C[C@@H](O)CC(=O)[C@@H]1OC(=O)CCCCCCCc2ccccc21,17%,.,.,0.7%
CC(=O)Nc1ccc(-c2csc(NC(=O)CCCc3cccs3)n2)cc1,1%,24%,-7,-0.3%
c1ccc(COc2ccc(CNCc3cccnc3)cc2)cc1,0%,-28%,-2,-0.8%
CCCC(=O)NC(=S)Nc1ccccc1C(F)(F)F,12%,-4%,0,0.1%
Cc1cccc2sc(NC(=O)c3ccc(OCC4CCCO4)cc3)nc12 (stereo unspecified),-1%,-39%,6,-9.5%
COc1ccc(-c2ncncc2-c2csc(C)n2)c(O)c1OC,-13%,-2%,8,2.3%
COCc1ccc(-c2ccc3c(c2)c(C#Cc2ccsc2)c(-c2cc(OC)cc(OC)c2)n3C)cc1,4%,.,.,-0.6%
CC[N+](C)(CC)CCOC(=O)C1c2ccccc2Oc2ccccc21,-9%,.,-2,2.0%
O=C(CN1C(=O)NC2(CCc3ccccc32)C1=O)NCc1cccc(C(F)(F)F)c1 (stereo unspecified),-19%,.,.,0.5%
N#CC1(NC(=O)CSc2nnc(-c3ccccc3F)o2)CCCCC1,-9%,.,.,-4.2%
COc1ccc(NC(=O)CS(=O)CC(=O)Nc2cccc3cccnc23)cc1 (stereo unspecified),8%,7%,.,1.5%
CC(=O)Nc1cccc(-c2cc(-c3c(Cl)cccc3Cl)no2)c1,3%,-1%,-4,-4.4%
CCc1ccccc1NC(=O)CSc1ccsc1[N+](=O)[O-],7%,1%,-2,2.3%
Cc1onc(-c2ccccc2)c1C(=O)N1CC(C)OC(C)C1 (stereo unspecified),-2%,-2%,4,-1.7%
CCCOc1ccc(N2C(=O)CC(N(CCc3ccc(OC)c(OC)c3)C(=S)Nc3ccccc3)C2=O)cc1 (stereo unspecified),-2%,?,-1,-0.4%
CC1(C)CC(=O)C(C=Nc2ccc3cn[nH]c3c2)=C(O)C1,3%,-4%,4,3.5%
CCc1nnc(NC(=O)C2=NN(C3CCS(=O)(=O)C3)C(=O)CC2)s1 (stereo unspecified),-4%,0%,-22,1.0%
O=S(=O)(c1ccc(F)cc1)N1CCc2ccccc21,1%,-1%,.,?
Cc1nc(Nc2cccc(C(C)O)c2)c2nnn(Cc3ccccc3F)c2n1 (stereo unspecified),1%,-2%,1,2.9%
CC1CN(C(=O)COC(=O)Cc2c(Cl)cccc2Cl)CC(C)O1 (stereo unspecified),15%,.,.,-1.1%
CCS(=O)(=O)Nc1cccc(-c2cc(-c3ccccc3)c3cc(C)ccc3n2)c1,22%,11%,-5,-4.1%
CN(C)CCNC(=O)c1c(NC(=O)c2ccccc2)sc2c1CCCC2,0%,-30%,.,1.1%
C[C@@]12C(=O)Nc3ccccc3C(=O)N1[C@H]1c3cc(Br)ccc3OC[C@@H]1[C@@H]2c1ccccc1,-1%,.,.,0.0%
COc1ccccc1NC(=S)NC(=O)C(C)(C)C,-7%,-11%,2,-1.8%
Cc1cc2nc(C3CCN(Cc4nnnn4Cc4cccs4)CC3)[nH]c2cc1C,6%,17%,4,2.9%
Cc1ccc(S(=O)(=O)N2CCN(C(=O)CNC(=O)c3ccc(Cl)cc3)CC2)cc1,-6%,.,.,0.1%
Cc1ccc(C2=Nc3cccnc3C(c3ccccc3)=NN2)cc1,-12%,-13%,-3,1.1%
N#CC1=C(N)C(C#N)(C#N)[C@H](c2cccnc2)[C@H]2CN(C(=O)OCc3ccccc3)CC=C12,-24%,-2%,-23,?
Cc1cc(-c2nn(-c3ccccc3F)cc2CN2CCC(C(N)=O)CC2)c(C)s1,-19%,1%,3,?
CCN(C(=O)CSc1nnc(C)n1Cc1ccccc1)C1CCS(=O)(=O)C1 (stereo unspecified),31%,1%,3,-0.7%
O=C(CSc1nnc(-c2ccc(F)cc2)c2ccccc12)NCC1CCCO1 (stereo unspecified),-19%,-7%,5,0.2%
[C-]#[N+][C@H](O[C@@H]1O[C@H](CO)[C@@H](O)[C@H](O)[C@H]1O)c1ccccc1,1%,.,.,-1.4%

# Later entries:
SMILES,Rango dissoc inh,miR-21 reporter,GLA inh pH 4.5,Rango complex inh
CCOc1ccc(S(=O)(=O)NCCCl)cc1,4%,-6%,-4,-2.7%
O=C(CCN1C(=O)/C(=C/c2ccc(F)cc2)SC1=S)N[C@@H](CO)Cc1ccccc1,12%,0%,.,3.3%
CCN(CC)S(=O)(=O)c1ccc(N2CC(C(=O)NCCc3ccc(Cl)cc3)CC2=O)cc1 (stereo unspecified),0%,.,.,?
Cc1cccn(Cc2c(F)cccc2Cl)c1=O,-8%,3%,-4,-0.7%
O=S(=O)(c1ccc(Cl)s1)N1CCc2ccccc2C1,31%,-4%,1,-0.1%
O=c1cc2c(c(-c3ccccc3)n1Cc1ccccc1)[C@@H](CCO)NC2,8%,.,.,-1.9%
COc1cccc(C(=O)Nc2c(C)n[nH]c2C)c1,9%,-3%,-4,?
O=C(O)c1ccccc1-c1ccccc1C(=O)NCc1ccco1,-4%,-7%,5,1.0%
Cc1noc(/C=C/N(C)C)c1S(=O)(=O)N1CCC(C(=O)NC(C)(C)C)CC1,-16%,5%,.,?
Cc1ccc(/C=C/C(=O)OCC(=O)NCCc2ccc(S(N)(=O)=O)cc2)o1,1%,.,.,1.4%

# Of the compounds above, 2 have a tert-butyl group.
SMILES,Rango dissoc inh,miR-21 reporter,GLA inh pH 4.5,Rango complex inh
COc1ccccc1NC(=S)NC(=O)C(C)(C)C,-7%,-11%,2,-1.8%
Cc1noc(/C=C/N(C)C)c1S(=O)(=O)N1CCC(C(=O)NC(C)(C)C)CC1,-16%,5%,.,?

# (next part)
SMILES,Rango dissoc inh,miR-21 reporter,GLA inh pH 4.5,Rango complex inh
C[C@@H]1C[C@H]2[C@@H]3CCC4=CC(=O)C=C[C@]4(C)[C@@]3(F)[C@@H](O)C[C@]2(C)[C@@]1(O)C(=O)COP(=O)(O)O,-11%,-40%&-37%,5&-7,0.9%
O=C(CNC(=O)c1ccccc1)OCc1nc2ccccc2s1,-10%,-56%,6,?
CC(C)[C@H](NC(N)=O)C(=O)Nc1ccc(F)c(Cl)c1,8%,2%,-3,-0.6%
CCOc1ccc(NC(=O)CN2CCN(CC(=O)Nc3ccc(Cl)c(C(F)(F)F)c3)CC2)cc1,-12%,27%,-2,-1.2%
Cc1cc2c([nH]c3ccccc32)c(C)n1,3%,-5%,.,2.0%
Cc1ccc(Cn2c(SCC(=O)NCC3CCCO3)nc3ccsc3c2=O)cc1 (stereo unspecified),-1%,-1%,-1[21.1 µM],1.7%
CCOC(=O)c1cc(C)sc1NC(=O)C(c1ccccc1)c1ccccc1,15%,-15%,7,0.2%
COc1cc2ccccc2cc1C(=O)NC1CCC(C)CC1 (stereo unspecified),-12%,.,.,0.2%
O=C(O)CNC(=O)CCN1C(=O)c2ccccc2C1=O,-7%,-4%,2,2.5%
COC(=O)c1cc(-c2c(-c3ccc4c(c3)OCO4)noc2-c2ccsc2)cc([N+](=O)[O-])c1,7%,-18%,.,-0.3%
CCCN(CC(=O)Nc1cc(C)on1)CC(=O)Nc1ccccc1C,-4%,.,.,-2.4%
CC(C)(C)c1ccc(-n2ncc3c2CCCC3NC(=O)c2csnn2)cc1 (stereo unspecified),18%,1%,.,0.3%
O=C1NC2(CCCCCC2)C(=O)N1Cc1ccccc1,-3%,8%,.,-2.5%
COc1ccc(CC(=O)NNC(=O)CSc2nnc(Cc3ccc(OC)cc3)n2-c2ccccc2)cc1,10%,1%,-16,-3.5%
O=C(CSCc1ccccc1)Nc1cccc(C(=O)Nc2ccc(C(=O)O)cc2)c1,22%,2%,2,-2.2%
Cc1csc(=O)n1CCC(=O)OCC(=O)Nc1cc([N+](=O)[O-])ccc1Cl,7%,.,.,1.3%
Cc1cccc(OCc2nnc(SCC(=O)Nc3cccc(C(=O)N4CCOCC4)c3)n2C)c1,7%,-6%,13,2.1%
CC(C)(C)NC(=O)NC(=O)CN1CCc2ccccc21,10%,-7%,-8[21.1 µM],5.9%
CCCCCN(C(=O)COC(=O)COc1c(C)cc(C)cc1C)c1c(N)n(CCCC)c(=O)[nH]c1=O,-9%,.,.,?
Cc1nc(CS(=O)(=O)c2ccccc2)cc(N2CCN(c3ccccc3F)CC2)n1,-13%,0%,-2,0.3%
COc1ccc(F)cc1S(=O)(=O)NCC(c1ccc2c(c1)OCO2)N1CCN(C)CC1 (stereo unspecified),0%,.,.,-0.2%
CCOc1ccc(-n2cc(C(=O)NCCOC)c3cc(OC)c(OC)cc3c2=O)cc1,3%,-1%,.,-2.6%
COC(/C=C/Nc1ccc(OC)cc1)=C(C#N)C#N,-3%,-2%,2,-1.0%
COc1ccc(-c2nn3c(C4CCCCC4)nnc3s2)cc1OC,4%,-32%,7,0.8%
CCCc1noc(-c2cccc([N+](=O)[O-])c2)n1,-10%,-2%,-2[21.1 µM],-5.8%
CCCCN(Cc1ccccc1)C1CCN(Cc2ccccc2)CC1,-16%,12%,.,-1.0%
COc1ccc(/C=C/C(=O)Nc2cccnc2Cl)cc1,-26%,-43%,.,0.7%
Cc1ccc(S(=O)(=O)N2CCOC23CCN(C(=O)c2cc(Cl)ccc2Cl)CC3)cc1,3%,0%,.,1.7%
O=C1C(Nc2ccc(O)cc2)=C/C(=N/S(=O)(=O)c2cccs2)c2ccccc21,-6%,?,4,-2.6%
CCC(=NCCc1c(C)[nH]c2ccc(OC(F)(F)F)cc12)C1=C(O)CC(c2ccccc2)CC1=O (stereo unspecified),-8%,22%,-16,?
O=c1c2c(-c3cccs3)csc2ncn1-c1ccc(Br)cc1,2%,-4%,-3,3.2%

# 2 entries from above, with two lines to a compound.
# The line under a structure holds: Rango dissoc inh, miR-21 reporter, GLA inh pH 4.5, Rango complex inh
CCOC(=O)c1cc(C)sc1NC(=O)C(c1ccccc1)c1ccccc1
  15%, -15%, 7, 0.2%
CC(C)(C)c1ccc(-n2ncc3c2CCCC3NC(=O)c2csnn2)cc1 (stereo unspecified)
  18%, 1%, ., 0.3%

# These rows are one share of the data. The share of hits here may be higher or lower than overall.
